RE007 growth inh: less growth of the S. pombe RE007 Vpr strain. S. pombe RE007 Vpr strain, BacTiter-Glo ATP luminescence, 24 h; control for the full effect not named in the record. Potency, µM (series often up to 92.2 µM), for inactives: top-dose activity change, negative = less growth. hit rate 0.21% among 360,000; active = well fitted falling curve with a large enough effect; inconclusive = small, poorly fitted or top-dose-only effect; inactive = no such curve, though single readings can be large or run the other way;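 further: on the % scale 0 is the no-effect control and ±100 the full control effect; nearly all actives have a fitted effect of over 50% in size; the assay follows cell death caused by Vpr and the record does not say whether a fall means rescue or toxicity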
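Fission yeast strain RE007, carrying one chromosomally integrated HIV-1 vpr copy, was seeded at OD 0.01 in PMG+AL medium with 23 nL pinned compound. After 24 h at 30 °C and 99% humidity, viability was read by BacTiter-Glo luminescence.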
Lassa entry inh: inhibitors of Lassa virus binding or cell entry | Lassa virus pseudotype entry inhibition, cell reporter; control for the full effect not named in the record | Potency, µM (titrated, usually from 37.9 µM), inactives show at the top dose activity change, negative = inhibition, most hits filed as inhibitors | hit rate 1.2% among 300,000 | AID 540256; active means well fitted inhibition curve with a large enough effect; inconclusive means small, poorly fitted or top-dose-only effect, or effect the other way; inactive means flat fitted curve, though single readings scatter; tested in HEK293 cells; further: on the % scale 0 is the no-effect control and ±100 the full control effect; nearly all actives have a fitted effect of over 50% in size; luciferase read-out
StopGo reporter: lowers the luciferase signal of an FMDV 2A StopGo reporter | human cells with a luciferase reporter of 2A StopGo recoding; control for the full effect not named in the record | Potency, µM (highest dose often 57.9 µM), for inactives: at the top dose signal change, negative = less light | hit rate 1.2% among 410,000; active = well fitted falling curve with a large enough effect; inconclusive = small, poorly fitted or top-dose-only effect; inactive = no such curve, though single readings can be large or run the other way; tested in HEK293T cells; further: on the % scale 0 is the no-effect control and ±100 the full control effect; nearly all actives have a fitted effect of over 45% in size; luciferase light after 4 h
NS1 inh: inhibitors of influenza NS1 protein function; S. cerevisiae slowed by influenza A NS1, growth recovery by OD600; hit rate 0.4% among 270,000; Potency, µM (doses to about 46.1 µM), inactives show at the highest dose activity, positive = more growth; active means well fitted rising curve with a large enough effect; inconclusive means small, poorly fitted or top-dose-only effect; inactive means no such curve, though single readings can be large or run the other way; further: nearly all actives have a fitted effect of over 50% in size
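Compounds were scored for reversing the slow growth caused by influenza A NS1 in S. cerevisiae, measured by optical density at 600 nm. Assay medium contained 2% galactose at pH 6.0; NS1-free yeast of the same strain were the positive control.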
Cruzain Triton: cruzain (T. cruzi) inhibition with detergent; P25779; purified cruzain, Z-FR-AMC fluorescence, 0.01% Triton; Potency, µM, inactives show max response, negative = inhibition, actives largely listed as inhibitors; hit rate 0.43% among 200,000;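 further: plate controls were neutral wells for no effect and buffer without enzyme for full effect; nearly all actives have a fitted effect of over 40% in size; top concentration of the series not given in the record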
Target sequence (P25779 123-467 limits assumed): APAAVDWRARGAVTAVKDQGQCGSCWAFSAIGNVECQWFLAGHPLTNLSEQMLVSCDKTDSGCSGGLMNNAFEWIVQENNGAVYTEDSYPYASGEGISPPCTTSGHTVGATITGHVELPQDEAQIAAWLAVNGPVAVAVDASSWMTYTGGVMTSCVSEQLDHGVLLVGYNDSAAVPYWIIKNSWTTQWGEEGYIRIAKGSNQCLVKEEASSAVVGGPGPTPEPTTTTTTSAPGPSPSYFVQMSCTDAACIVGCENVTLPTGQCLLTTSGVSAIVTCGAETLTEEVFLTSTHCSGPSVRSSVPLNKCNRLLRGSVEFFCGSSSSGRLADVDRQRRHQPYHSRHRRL
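In this qHTS format, compounds are incubated with 1.5 nM cruzain for 15 min at room temperature before 2 uM Z-FR-AMC is added. Release of AMC is followed at 360/450 nm, and progress is taken as the 60 s fluorescence difference.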
Cruzain noTriton: inhibitors of Trypanosoma cruzi cruzain without detergent; P25779; purified cruzain, Z-FR-AMC fluorescence, no detergent; Potency, µM, for inactives: max response, negative = inhibition, most hits filed as inhibitors; AID 1476; hit rate 2.3% among 200,000;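 further: plate controls were enzyme without inhibitor for no effect and buffer without enzyme for full effect; nearly all actives have a fitted effect of over 40% in size; top concentration of the series not given in the record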
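Purified cruzain at 1.5 nM, pre-incubated 15 min with compound at room temperature in 100 mM sodium acetate pH 5.5, 5 mM DTT, 0.00005% Triton X-100. Reaction started with 2 uM Z-FR-AMC; AMC fluorescence increase over 60 s gives rate.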
MARV entry inh: blocks Marburg virus binding to or entry into cells. Marburg virus pseudotyped entry inhibition, cell reporter; control for the full effect not named in the record; about a third of the inactives were read at about 46 µM. Potency, µM (series often up to 37.8 µM), for the others: at the top dose activity change, negative = inhibition, most hits filed as inhibitors. hit rate 1.8% among 300,000. AID 540276; active = well fitted inhibition curve with a large enough effect; inconclusive = small, poorly fitted or top-dose-only effect, or effect the other way; inactive = flat fitted curve, though single readings scatter; tested in HEK293 cells; about a fifth of its hits are not listed in these tables; further: on the % scale 0 is the no-effect control and ±100 the full control effect; luciferase read-out
SARS PLpro yeast: inhibitors of SARS-CoV papain-like protease in yeast; S. cerevisiae expressing SARS-CoV PLpro, growth rescue; control for the full effect not named in the record; Potency, µM (doses to about 32.9 µM), without a hit: at the highest dose activity, positive = growth rescue; hit rate 0.19% among 330,000; active means well fitted rising curve with a large enough effect; inconclusive means small, poorly fitted or top-dose-only effect; inactive means no such curve, though single readings can be large or run the other way; further: 0% is about no effect; nearly all actives have a fitted effect of over 55% in size; growth read by luminescence after 48 h
* marks the source's active call; other numbers are inactive results; u = inconclusive; x = not tested or not shown; & = joins results of further samples; [ ] = remark or other dose. Unless noted, the call rests on the fitted dose curve; in most records, active means well fitted curve in the direction sought with a large enough effect; inconclusive means small, poorly fitted or top-dose-only effect, or another doubt; inactive means no such curve, though single readings can be large; an effect the other way counts as inactive or inconclusive. Potency means the concentration at half of the fitted maximal effect.

Structure	RE007 growth inh	Lassa entry inh	StopGo reporter	NS1 inh	Cruzain Triton	Cruzain noTriton	MARV entry inh	SARS PLpro yeast
COc1ccc(/C=C(\C#N)C(=O)OCC(=O)NCc2ccccc2)cc1	12%	8%	-25%	-9%	-10%	32µM*	u	-7%
CCN(CC)S(=O)(=O)c1ccc2oc(C(=O)Nc3ccc(OC)cc3OC)c(C)c2c1	4%	6.5µM*	-14%	-32%	-0.9%	u	u	-4%
COC(=O)C1=C(C)NC2=C(C(=O)CCC2)C1c1cccc(C)n1 (stereo not drawn)	-9%	-16%	3%	0%	-2.7%	-5%	-29%	3%
Cc1ccn2c(c1)nc(=O)c1cc(S(=O)(=O)N3CCCCC3)ccc12	-9%	4%	-5%&-13%	1%	0.2%	1%	9%[46.1 µM]	9%
CCc1cccc(NC(=O)c2oc3ccc4c(c3c2C)C(=O)CC(C)(C)O4)c1	x	-1%[46.1 µM]	u	x	-4.0%	u	x	x
CCOC(=O)CC1C(=O)NCCN1C(=O)c1ccc(F)cc1F (stereo not drawn)	29%	-2%	-20%	-9%	5.8%	2%	16%	-2%
COC(=O)c1cc(S(=O)(=O)N(C)C2CCCCC2)c[nH]1	2%	x	-3%	10%	x	x	x	6%
Cc1cccc(C(=O)Nc2sc(C)c(-c3ccccc3)c2C#N)c1	1%	u	-24%	-5%	-2.9%	u	u	-7%
CC1CCN(C(=O)CN(Cc2ccccc2)S(C)(=O)=O)CC1	-25%	x	-17%	17%	x	x	x	-3%
NS(=O)(=O)c1ccc(S(=O)(=O)N(Cc2ccccc2F)CC2CCCO2)cc1 (stereo not drawn)	-13%	-12%	x	-5%	1.8%	-8%	-21%	-5%
O=C(O)/C=C/C(=O)N1CCN(Cc2ccc3c(c2)OCO3)CC1	8%	x	9%	1%	x	x	x	1%
Cn1c(N)c(C(=O)COC(=O)C23CC4CC(CC(C4)C2)C3)c(=O)n(C)c1=O	15%	u	-12%	-5%	-0.2%	u	-4%	5%[6.58 µM]
Cc1ccc(NC(=O)C2CCN(S(=O)(=O)c3ccc4c(c3)NC(=O)CO4)CC2)cc1C	7%	x	14%	3%	x	x	x	-3%
Cc1c(NC(=O)CN2C(=O)c3ccccc3S2(=O)=O)c(=O)n(-c2ccccc2)n1C	2%	3%	9%	-6%	-1.0%	10%	0%&0%	2%
COc1ccc(NC(=O)C2CC(=O)N/C(=N/N=C/c3ccccc3)S2)cc1 (stereo not drawn)	9%	u	-12%	5%	x	x	u	2%
CCN1C(Nc2ccccc2)=NC[C@@H]1C	2%	x	1%	7%	x	x	x	-3%
CCNC(=O)c1cc(S(=O)(=O)N2CCSCC2)ccc1OC	-18%	7%[46.1 µM]	-10%	12%	x	x	7%[46.1 µM]	-4%
COc1ccc(S(=O)(=O)NCC2CCCO2)cc1NC(=O)c1ccc(Cl)cc1 (stereo not drawn)	22%	-3%[46.1 µM]	78%[activator]	x	x	x	u	2%
O=C(CCCCl)NC(=S)Nc1ccc(CN2CCOCC2)cc1	-9%	-12%	4%	1%	x	x	u	2%
O=C(Nc1cccc(C(=O)O)c1)/C(=C\c1ccco1)NC(=O)c1ccccc1	1%	17%[46.1 µM]	6%	14%	x	x	u	2%
Cc1ccc(N(CC(=O)Nc2ccc(C)cn2)S(=O)(=O)c2c(C)nn(C)c2C)cc1	-5%	0%	-3%	-15%	1.7%	u	-16%	5%
CC(C)CCNc1ncnc2c1nnn2Cc1ccccc1	6%	13%[46.1 µM]	-9%	4%	x	x	u	-1%
COc1ccc2c(Sc3ccccc3)c(C(=O)NCc3ccc(OC(C)C)cc3)[nH]c2c1	x	0%[46.1 µM]	0%	x	-2.9%	10%	u	x
CN(C)c1ccc(CNC(=O)c2cc3cc(S(=O)(=O)N4CCCCC4)ccc3n2C)cc1	x	10µM*	-16%	x	-1.0%	u	x	x
CC(=O)N1CCN(CC(=O)Nc2cccc(S(=O)(=O)N3CCCCCC3)c2)CC1	9%	-14%[46.1 µM]	16%	x	x	x	0%[46.1 µM]	1%
COC(=O)CN1C(=O)COc2ccc(S(=O)(=O)NCc3ccccc3)cc21	-5%	x	28%	-1%	x	x	x	-5%
CCOC(=O)c1c(NC(=S)NC(=O)c2ccco2)sc2c1CCCC2	8%	-17%	-9%	-2%	1.5%	13µM*	-14%	u
C[C@H](C(=O)C=[N+]=[N-])N1C(=O)c2ccccc2C1=O	x	x	x	3%	-0.6%	-1%	5%	0%
COc1cccc(OC)c1C(=O)NC(=O)Nc1c(C)cccc1C	1%	x	4%	4%	x	x	x	-2%
COc1ccc(N2CCN(Cc3nc4c(c(=O)[nH]c(=O)n4C)n3Cc3ccc(Cl)cc3)CC2)cc1	x	-2%[46.1 µM]	0%	x	-4.8%	u	-27%[46.1 µM]	x

Continued, overlapping the part above by 5 compounds.
Structure	RE007 growth inh	Lassa entry inh	StopGo reporter	NS1 inh	Cruzain Triton	Cruzain noTriton	MARV entry inh	SARS PLpro yeast
COC(=O)CN1C(=O)COc2ccc(S(=O)(=O)NCc3ccccc3)cc21	-5%	x	28%	-1%	x	x	x	-5%
CCOC(=O)c1c(NC(=S)NC(=O)c2ccco2)sc2c1CCCC2	8%	-17%	-9%	-2%	1.5%	13µM*	-14%	u
C[C@H](C(=O)C=[N+]=[N-])N1C(=O)c2ccccc2C1=O	x	x	x	3%	-0.6%	-1%	5%	0%
COc1cccc(OC)c1C(=O)NC(=O)Nc1c(C)cccc1C	1%	x	4%	4%	x	x	x	-2%
COc1ccc(N2CCN(Cc3nc4c(c(=O)[nH]c(=O)n4C)n3Cc3ccc(Cl)cc3)CC2)cc1	x	-2%[46.1 µM]	0%	x	-4.8%	u	-27%[46.1 µM]	x
O=C(CN1C(=O)/C(=C/c2ccccc2F)SC1=S)NC1C=CS(=O)(=O)C1 (stereo not drawn)	-5%	-22%[46.1 µM]	-9%	18%	x	x	-6%[46.1 µM]	3%
NC(=O)C1CCN(C(=O)c2ccc([N+](=O)[O-])cc2NC(=O)c2cccs2)CC1	-18%	2%[46.1 µM]	-3%	3%	x	x	1%[46.1 µM]	1%
Cc1cccc(NC(=O)C2=C(O)c3ccccc3N(C)S2(=O)=O)c1	-10%	-21%	12%	0%	-6.0%	1%	7%	-4%
CCN1CCN(c2cc(C)nc(-c3ccccc3O)n2)CC1	-5%	x	u	-1%	x	x	x	0%
CCOC(=O)C1=C(N)Oc2c(oc(CO)cc2=O)C1c1ccc(F)cc1 (stereo not drawn)	8%	-10%	-8%	6%	1.6%	-6%	0%	-1%
O=C1CC(c2cccs2)c2ccc3ccccc3c2N1 (stereo not drawn)	-14%	u	8%	x	x	x	u	-9%
CCCNC(=O)COC(=O)c1cc(C)nc2ccccc12	5%	1%	-22%	0%	x	x	10%	1%
CC(CNS(=O)(=O)c1ccccc1)(c1ccccc1)N1CCCCC1 (stereo not drawn)	-4%	x	-20%	-1%	x	x	x	0%
CN(CCN1CCOCC1)C(=O)c1cc(COc2ccc(F)c(F)c2)on1	-3%	u	14%	4%	x	x	u	-1%
Cc1cc2c(cc3c(SCc4ccccc4Cl)nnc(C)n32)o1	x	10%[46.1 µM]	35%[activator]	x	-0.7%	5%	x	x
COC(=O)c1ccc(NC(=O)CSc2nc3ccccc3c(=O)[nH]2)cc1	-4%	u	5%	3%	-1.0%	u	-5%	0%
NC(=O)C1CCN(C2CC(=O)N(Cc3ccc(N4CCCC4=O)cc3)C2=O)CC1 (stereo not drawn)	u	u	22%	-11%	-5.0%	-3%	3%	0%
Cc1c(C(N)=O)sc2ncn(CCOc3ccccc3)c(=O)c12	-10%	x	19%	x	x	x	17%[46.1 µM]	5%
COc1cccc(C(C(=O)NC2CCCCC2)N(CC2CCCO2)C(=O)CNC(=O)c2ccco2)c1 (stereo not drawn)	-4%	-15%	3%	-1%	-2.3%	u	-15%	7%
COc1ccc(/C=N/NC(=O)C(N)=O)c(OC)c1OC	-2%	-8%	-4%	16%	-6.4%	-1%	0%	3%
CC(C)Nc1nc(NC(C)C)nc(N(C)N)n1	-1%	u	-8%	8%	0.5%	12%	-26%	-11%
Cc1ccc2c(c1)N(C(=O)CCC(=O)N1CCc3ccccc3C1)CCO2	-15%	0%	u	-73%	-0.2%	7%	1%	4%
C=CCn1c(SCC(=O)Nc2ccc3c(c2)CCC3)nnc1-c1cccs1	22%	-23%	-25%	-36%	-6.3%	-6%	-1%	1%
Cc1cccc(-n2c(-c3ccco3)n[nH]c2=S)c1	0%	4%	-18%	-1%	-1.6%	-1%	u	-4%
CC(C)Cc1ccc(C(C)C(=O)Nc2ccc(O)cc2)cc1 (stereo not drawn)	10%	x	0%	-1%	x	x	x	-8%
COc1ccccc1-n1c(Cc2ccccc2)nc2ccccc2c1=O	4%	24%	-19%	-5%	x	x	u	-1%
C=CCc1cccc2cc(C(=O)NNC(=O)c3ccncc3)c(=O)oc12	40%	16%[46.1 µM]	2%	0%	x	x	7%	1%

Random excerpt: 2 entries already listed, in no set order.
Structure	RE007 growth inh	Lassa entry inh	StopGo reporter	NS1 inh	Cruzain Triton	Cruzain noTriton	MARV entry inh	SARS PLpro yeast
CN(CCN1CCOCC1)C(=O)c1cc(COc2ccc(F)c(F)c2)on1	-3%	u	14%	4%	x	x	u	-1%
CC(C)Nc1nc(NC(C)C)nc(N(C)N)n1	-1%	u	-8%	8%	0.5%	12%	-26%	-11%

Assay outcomes deposited in PubChem by National Center for Advancing Translational Sciences (NCATS).
